Vaccinia pol inh: inhibitors of vaccinia virus processive DNA synthesis (E9 polymerase) | actives 0.94% (n = 46,000) | normalized absorbance, % (test concentration not listed) | AID 493162 | in vitro processive DNA synthesis, absorbance read-out; active compounds read low; some inactives read as strong as hits;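 active = replicate mean up to 90% and picked by the depositor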;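 note: 100% = median of the test wells of a plate; 100 nL library stock went into each well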
The depositor's hits bear a star. This is a subset (hit frequency here may not be typical).

Screening Cc1ccc(CC(=O)[C@@H]2[C@@H](c3ccoc3)C(C#N)(C#N)[C@H]3C=Cc4ccccc4N23)cc1 returned Vaccinia pol inh 97.
Screening Cc1ccc(C)c(N2CCN(S(=O)(=O)c3ccc4[nH]c(=O)ccc4c3)CC2)c1 returned Vaccinia pol inh 96.
CCNc1nc(Oc2ccc(C(=O)OC)cc2)nc(SC)n1 was read as Vaccinia pol inh 100.
O=C(OCC(=O)N1CCCCC1)c1cccs1 was read as Vaccinia pol inh 86.
Screening CC1CCc2nc3ccc4ccccc4c3c(-c3ccc(O)c(O)c3)c2C1 (stereo not drawn) returned Vaccinia pol inh 100.
For CN(C)C(=O)n1c(SCc2ccccc2)nnc1-c1ccc(C(C)(C)C)cc1 the results were Vaccinia pol inh 100.
For Cc1nc2sccn2c(=O)c1S(=O)(=O)NCCc1ccccc1 the results were Vaccinia pol inh 103.
`O=C(c1cccc2c1-c1ccccc1C2)N1CCCCC1` gave Vaccinia pol inh 101.
Screening CCOc1ccc(N=Cc2ccc(N(CC)CC)cc2O)cc1 returned Vaccinia pol inh 100.
Screening CN/C(=C\[N+](=O)[O-])NCCSCc1ccc(CN(C)C)o1 returned Vaccinia pol inh 99.
Cc1ccc2c(c1)C1CN(C)CCC1N2C(=O)Cc1cccs1 (stereo not drawn) was read as Vaccinia pol inh 104.
For Cc1nc(SCSc2nc3ccccc3s2)nc2c1CCCC2 the results were Vaccinia pol inh 89.
CCn1c(=O)c(=O)n(CC)c2cc(S(=O)(=O)NCc3cccs3)ccc21 was read as Vaccinia pol inh 82.
Cc1ccn2c(NC(=O)C(C)(C)C)c(-c3ccc(F)cc3)nc2c1 was read as Vaccinia pol inh 98.
`Cc1ccc(S(=O)(=O)N2Cc3ccccc3CC2C(=O)NC2CCCCC2)cc1` (stereo not drawn) gave Vaccinia pol inh 96.
For c1ccc(Cn2c(NCc3ccncc3)nc3ccccc32)cc1 the results were Vaccinia pol inh 102.
COc1ccc(CC(C)CC(=O)Nc2ccc(I)cc2)cc1 (stereo not drawn) was read as Vaccinia pol inh 100.
For CCOC(=O)c1cc(-c2ccnn2S(=O)(=O)c2cccc(C(F)(F)F)c2)on1 the results were Vaccinia pol inh 69*.
For Oc1ccc(Cl)cc1 the results were Vaccinia pol inh 103.
For O=C(COC(=O)C1CCCO1)Nc1cc(Cl)cc(Cl)c1 (stereo not drawn) the results were Vaccinia pol inh 100.
For COC(=O)C1C(OC(=O)c2ccccc2)CC2CCC1N2C (stereo not drawn) the results were Vaccinia pol inh 100.
`COc1ccccc1N(Cc1ccccc1O)C(=O)COc1ccccc1C` gave Vaccinia pol inh 94.
Screening Cc1ccccc1N1C(=O)C2C=CC=CC2n2cnnc21 (stereo not drawn) returned Vaccinia pol inh 96.
Screening CC[n+]1c(-c2ccccc2)c2cc(N)ccc2c2ccc(N)cc21 returned Vaccinia pol inh 12*.
CC(C)(C)SCCNc1nc(Sc2ccc(Cl)cc2)nc(N2CCSCC2)n1 was read as Vaccinia pol inh 99.
For N#CC1(c2ccccc2)N=C2C=CC=CN2N=C1c1ccccc1 (stereo not drawn) the results were Vaccinia pol inh 107.
Screening CC1CCCC(C(=O)O)N1C(=O)CCS (stereo not drawn) returned Vaccinia pol inh 96.
For O=c1[nH]c(C(F)(F)F)nc2c1cnn2-c1ccccc1 the results were Vaccinia pol inh 103.
For N#Cc1ccc(-c2ccccc2)nc1SCC(=O)O the results were Vaccinia pol inh 102.
`CCOC(=O)C(C)Oc1cc2oc(=O)c3c(c2cc1Cl)CCCC3` (stereo not drawn) gave Vaccinia pol inh 100.
`Brc1ccc(NC2=Nc3ccccc3SC2)cc1` gave Vaccinia pol inh 100.
Screening CCOC(=O)c1c(CC(C)C)csc1NC(=O)Cc1ccccc1 returned Vaccinia pol inh 84.
Screening C[N+]1(CCOC(=O)Nc2ccccc2)CCCCC1 returned Vaccinia pol inh 100.
CCOC(=O)c1cc(C(=O)c2ccc(Cl)cc2)n2c1ccc1ccccc12 was read as Vaccinia pol inh 98.
For COC(=O)/C=C/c1ccc(Br)cc1 the results were Vaccinia pol inh 106.
`Cc1ccccc1C1C2=C(Nc3c1c(=O)n(C)c(=O)n3C)c1ccccc1C2=O` (stereo not drawn) gave Vaccinia pol inh 102.
O=C(NC(Nc1ccc(Cl)cc1)C(=O)c1ccccc1)c1ccccc1 (stereo not drawn) was read as Vaccinia pol inh 100.
Cc1sc(/N=C/c2ccc(Br)s2)c(C(N)=O)c1C was read as Vaccinia pol inh 101.
CC(C)NCC(O)c1cc(O)cc(O)c1 (stereo not drawn) was read as Vaccinia pol inh 99.
Screening O=c1oc(C23CC4CC(CC(C4)C2)C3)ns1 returned Vaccinia pol inh 101.
Screening CC(=O)Nc1ccc(C2Nc3cc(C)ccc3O2)cc1 (stereo not drawn) returned Vaccinia pol inh 105.
Screening O=C1CC(c2cccs2)SC(N(c2ccccc2)c2ccccc2)=N1 (stereo not drawn) returned Vaccinia pol inh 100.
Screening O=C(OCn1nnc2ccccc2c1=O)C1(c2ccc(Cl)cc2)CCCC1 returned Vaccinia pol inh 103.
Cc1ccc(C(=O)OCC(=O)N(C)c2ccccc2)s1 was read as Vaccinia pol inh 100.
Screening O=C(NC1CCCCCCC1)C1CCCN(S(=O)(=O)c2cnc[nH]2)C1 (stereo not drawn) returned Vaccinia pol inh 104.
`CN(C(=O)COc1ccc(C#N)cc1)C1CCCCC1` gave Vaccinia pol inh 108.
`COc1ccc(NC(=O)CSc2cn(Cc3ccc(Cl)cc3)c3ccccc23)cc1` gave Vaccinia pol inh 100.
`COc1ccc(-c2nn(-c3ccccc3)cc2C(=O)N(C)C)cc1` gave Vaccinia pol inh 98.
Screening O=c1[nH]c(C(F)(F)F)nc2ccc3ccccc3c12 returned Vaccinia pol inh 99.
Screening COc1ccc(CCNC(=O)C2CC2(c2ccc(C)cc2)c2ccc(C)cc2)cc1OC (stereo not drawn) returned Vaccinia pol inh 100.
`S=C(Nc1cccc(Cl)c1)Nc1cc(-c2ccc(Cl)cc2)[nH]n1` gave Vaccinia pol inh 101.
N#CCc1nc2cc(C(F)(F)F)ccc2s1 was read as Vaccinia pol inh 101.
COc1ccc(/C=C/C(=O)N(C)c2ccccc2)cc1OC was read as Vaccinia pol inh 103.
O=C(NC(=O)N1CCOCC1)c1cc(Br)cc(Br)c1 was read as Vaccinia pol inh 101.
`COC(=O)c1ccsc1NC(=O)C(C)C` gave Vaccinia pol inh 82.
For CCCCN(CC)S(=O)(=O)c1ccc(C(=O)Nc2ccccc2-c2nc3ccccc3[nH]2)cc1 the results were Vaccinia pol inh 101.
For N#Cc1ccc(C(=O)N(Cc2ccccc2)c2ccccn2)cc1 the results were Vaccinia pol inh 100.
Screening CN1C(=O)CC(C(=O)NCCc2ccccc2)SC1=Nc1ccc(I)cc1 (stereo not drawn) returned Vaccinia pol inh 100.
For COc1ccc(C2(C(=O)NC3CCCCC3)CCCC2)cc1OC the results were Vaccinia pol inh 99.
For COc1ccc(NC(=O)Cn2c(C(F)(F)F)nc3ccccc32)cc1 the results were Vaccinia pol inh 112.

Among those listed so far, these contain an NH in an aromatic ring:
Screening Cc1ccc(C)c(N2CCN(S(=O)(=O)c3ccc4[nH]c(=O)ccc4c3)CC2)c1 returned Vaccinia pol inh 96.
For O=c1[nH]c(C(F)(F)F)nc2c1cnn2-c1ccccc1 the results were Vaccinia pol inh 103.
Screening O=C(NC1CCCCCCC1)C1CCCN(S(=O)(=O)c2cnc[nH]2)C1 (stereo not drawn) returned Vaccinia pol inh 104.
Screening O=c1[nH]c(C(F)(F)F)nc2ccc3ccccc3c12 returned Vaccinia pol inh 99.
`S=C(Nc1cccc(Cl)c1)Nc1cc(-c2ccc(Cl)cc2)[nH]n1` gave Vaccinia pol inh 101.
For CCCCN(CC)S(=O)(=O)c1ccc(C(=O)Nc2ccccc2-c2nc3ccccc3[nH]2)cc1 the results were Vaccinia pol inh 101.

Later entries
Screening CCOC(=O)c1cnc(SCC(=O)Nc2ccc(C)cc2Cl)nc1N returned Vaccinia pol inh 100.
Screening CCOC(=O)N1CCC(N/C=C(\C#N)S(=O)(=O)C(C)C)CC1 returned Vaccinia pol inh 108.
`Cc1nc(Oc2ccc3c(C)cc(=O)oc3c2)c2c3c(sc2n1)CCC3` gave Vaccinia pol inh 100.
For CNC(=S)N(Cc1ccc(OC)cc1OC)c1ccc(I)cc1 the results were Vaccinia pol inh 101.
Screening O=C1C(=O)N2c3ccccc3OC(=O)C2(O)/C1=C(\O)c1ccccc1 (stereo not drawn) returned Vaccinia pol inh 100.
`O=C(NCc1cccnc1)c1cc(-c2cccc(Br)c2)nc2ccccc12` gave Vaccinia pol inh 100.
Screening Cc1ccc2c(c1)C1CN(C)CCC1N2C(=O)/C=C/c1ccccc1 (stereo not drawn) returned Vaccinia pol inh 106.
`Cc1sc2ncnc(SC3CCCCN(C(=O)c4ccccc4)C3=O)c2c1C` (stereo not drawn) gave Vaccinia pol inh 98.
COC(=O)CC1=NN(c2ccccc2)C(=O)C1 was read as Vaccinia pol inh 101.
`CN(C)/C=N/c1c(C#N)cnn1-c1ncnc2sc3c(c12)CCC3` gave Vaccinia pol inh 100.
`C=CCN(C(=O)CSc1nc2[nH]ncc2c(=O)n1-c1cccc2ccccc12)c1ccccc1` gave Vaccinia pol inh 102.
`CCc1ccc2[nH]c(=O)c(C(c3nnnn3C(C)(C)C)N3CCc4ccccc4C3)cc2c1` (stereo not drawn) gave Vaccinia pol inh 91.
`CCCNS(=O)(=O)c1cc2c(cc1C)N(C)CCO2` gave Vaccinia pol inh 108.
CCOC(=O)c1oc2ccc(Cl)cc2c1NC(=O)CCCN1C(=O)c2ccccc2C1=O was read as Vaccinia pol inh 100.
Screening N#Cc1ccsc1NC(=O)CCOc1ccccc1 returned Vaccinia pol inh 104.
Screening CC12CCCCC1=NC(c1ccccc1O)N2O (stereo not drawn) returned Vaccinia pol inh 101.
Screening O=C(Cc1nc2ccccc2[nH]1)c1cccs1 returned Vaccinia pol inh 98.
`O=C(CSc1nc2c(sc3ccccc32)c(=O)n1-c1ccccc1)N1CCCC1` gave Vaccinia pol inh 101.
For CC1CC1C(=O)OCc1ccc(Cl)cc1Cl (stereo not drawn) the results were Vaccinia pol inh 102.
Cc1cc(O)cc(C)c1Cl was read as Vaccinia pol inh 96.
For COc1ccc(C2=Nc3ccccc3SC(c3ccccc3)C2)cc1 (stereo not drawn) the results were Vaccinia pol inh 93.
`COCc1nc2ccccc2n1CC(=O)N(c1ccccc1)C(C)C` gave Vaccinia pol inh 116.
For O=C(O)c1ccccc1C(=O)N1CCN(Cc2ccncc2)CC1 the results were Vaccinia pol inh 112.
For O=C(NCc1c(Cl)cccc1Oc1ccccc1)c1ccccc1 the results were Vaccinia pol inh 108.

Among those listed so far, 14 have a thiophene ring, fused or not:
O=C(OCC(=O)N1CCCCC1)c1cccs1 was read as Vaccinia pol inh 86.
Cc1ccc2c(c1)C1CN(C)CCC1N2C(=O)Cc1cccs1 (stereo not drawn) was read as Vaccinia pol inh 104.
CCn1c(=O)c(=O)n(CC)c2cc(S(=O)(=O)NCc3cccs3)ccc21 was read as Vaccinia pol inh 82.
Screening CCOC(=O)c1c(CC(C)C)csc1NC(=O)Cc1ccccc1 returned Vaccinia pol inh 84.
Cc1sc(/N=C/c2ccc(Br)s2)c(C(N)=O)c1C was read as Vaccinia pol inh 101.
Screening O=C1CC(c2cccs2)SC(N(c2ccccc2)c2ccccc2)=N1 (stereo not drawn) returned Vaccinia pol inh 100.
Cc1ccc(C(=O)OCC(=O)N(C)c2ccccc2)s1 was read as Vaccinia pol inh 100.
`COC(=O)c1ccsc1NC(=O)C(C)C` gave Vaccinia pol inh 82.
`Cc1nc(Oc2ccc3c(C)cc(=O)oc3c2)c2c3c(sc2n1)CCC3` gave Vaccinia pol inh 100.
`Cc1sc2ncnc(SC3CCCCN(C(=O)c4ccccc4)C3=O)c2c1C` (stereo not drawn) gave Vaccinia pol inh 98.
`CN(C)/C=N/c1c(C#N)cnn1-c1ncnc2sc3c(c12)CCC3` gave Vaccinia pol inh 100.
Screening N#Cc1ccsc1NC(=O)CCOc1ccccc1 returned Vaccinia pol inh 104.
Screening O=C(Cc1nc2ccccc2[nH]1)c1cccs1 returned Vaccinia pol inh 98.
`O=C(CSc1nc2c(sc3ccccc32)c(=O)n1-c1ccccc1)N1CCCC1` gave Vaccinia pol inh 101.

Remaining list, next part:
CCOC(=O)C1=C(C)NC(SC)=NC1c1cccs1 (stereo not drawn) was read as Vaccinia pol inh 102.
Screening CCC(Sc1nc2ccsc2c(=O)n1Cc1ccccn1)C(=O)Nc1cccc(OC)c1 (stereo not drawn) returned Vaccinia pol inh 90.
`CC(C)(C)NC(=S)NCC1CC1` gave Vaccinia pol inh 91.
For CC1CCCCN1C(C(=O)O)c1ccccc1 (stereo not drawn) the results were Vaccinia pol inh 104.
CCN(CC)c1c2c(nc3nncn13)CCC2 was read as Vaccinia pol inh 109.
Screening Cc1cc(-c2ccccc2)nc(SCC(=O)N2CCCC2)n1 returned Vaccinia pol inh 101.
`O=C(CNC(=O)C1CCCCC1)NC1CCCCC1` gave Vaccinia pol inh 103.
`COC(=O)c1noc(C)c1C(=O)/C=C/N1CCCCC1` gave Vaccinia pol inh 100.
`Cc1cc(C(F)(F)F)[nH]c(=O)c1C#N` gave Vaccinia pol inh 98.
Screening CC(=O)N(c1ccc(C)cc1)C1C=CS(=O)(=O)C1 (stereo not drawn) returned Vaccinia pol inh 110.
Screening COc1ccccc1C(=O)OCC(=O)c1ccccc1F returned Vaccinia pol inh 89.
`O=C(Nc1cccc(-c2cn3ccccc3n2)c1)c1cccc(Cl)c1` gave Vaccinia pol inh 100.
`O=c1oc2cc(O)ccc2cc1S(=O)(=O)c1ccccc1` gave Vaccinia pol inh 77.
Screening Cc1cc(Nc2ccccc2)n(-c2ccccc2C(=O)O)n1 returned Vaccinia pol inh 86*.
For CCCc1c(C)nc2c(OC)cccc2c1SCC(=O)O the results were Vaccinia pol inh 99.
Screening Cc1cc2cc(CNS(=O)(=O)c3ccccc3)ccc2[nH]1 returned Vaccinia pol inh 100.
For CCOC(=O)c1c(CN2CCOCC2)oc2ccc(OC)cc12 the results were Vaccinia pol inh 100.
`COc1ccc(-n2c(N)c(-c3nc4ccccc4n3C)sc2=S)cc1` gave Vaccinia pol inh 101.
Screening NNc1cccc2cccnc12 returned Vaccinia pol inh 93.
For CC1SC(C)C(=O)N(CC(=O)NCc2ccccc2)C1=O (stereo not drawn) the results were Vaccinia pol inh 108.
Oc1ccc2ccccc2c1CN1CCc2ccccc2C1 was read as Vaccinia pol inh 100.
